Beta2AR agonist: beta2AR agonists driving receptor internalization, primary screen, cell-based, FAP fluorogen, flow cytometry. AID 504454, 2011. Am2.2-beta2AR cells; reference of the scale not given here. 0.43% of 340,000 active. response, % (concentration not given with the values);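 active means response above a set limit, near 3 SD of response in nonfluorescent compounds, cut at about 42% in these data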;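 further: stock transfer was 100 nL into about 11 µL; a reference agonist was the positive control; negative values mostly stem from fluorescent compounds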
Target sequence (P07550 whole entry, looked up): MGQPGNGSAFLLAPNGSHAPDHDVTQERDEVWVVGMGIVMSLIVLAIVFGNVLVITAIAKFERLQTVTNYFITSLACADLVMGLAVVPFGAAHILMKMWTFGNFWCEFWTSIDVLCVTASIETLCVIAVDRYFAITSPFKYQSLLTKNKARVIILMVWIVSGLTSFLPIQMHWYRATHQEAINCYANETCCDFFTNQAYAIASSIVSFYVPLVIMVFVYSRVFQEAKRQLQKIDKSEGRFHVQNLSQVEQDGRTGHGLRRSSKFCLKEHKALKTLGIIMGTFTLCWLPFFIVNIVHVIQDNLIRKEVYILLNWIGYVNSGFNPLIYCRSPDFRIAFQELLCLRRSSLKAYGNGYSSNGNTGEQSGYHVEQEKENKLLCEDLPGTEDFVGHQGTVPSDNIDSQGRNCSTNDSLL
Ecoli growth: E. coli growth inhibition, primary screen, OD600; Escherichia coli growth, 23 h; stronger effect = lower value; OD600 absorbance (no concentration beside the values); 0.21% of 330,000 active;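 active means OD600 absorbance below the run mean of sample wells minus 3.6 SD, in any replicate, cut at about 0.56 in these data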;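 further: stock transfer was 300 nL into about 60 µL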
ALR H2O2 inh: inhibitors of human ALR sulfhydryl oxidase, primary screen, biochemical, H2O2 detection, HRP-luminol luminescence, single point; 3.8% of 290,000 active; inhibition, % (no concentration beside the values); FAD-linked sulfhydryl oxidase ALR (Homo sapiens), P55789; AID 485317, 2010; purified ALR, DTT oxidation;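 active means mean and each replicate at 75% or more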;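 further: stock transfer was 7.5 nL into about 7.5 µL; 0% = neutral wells and 100% = wells with inactivated enzyme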
Target sequence (P55789 whole entry, looked up): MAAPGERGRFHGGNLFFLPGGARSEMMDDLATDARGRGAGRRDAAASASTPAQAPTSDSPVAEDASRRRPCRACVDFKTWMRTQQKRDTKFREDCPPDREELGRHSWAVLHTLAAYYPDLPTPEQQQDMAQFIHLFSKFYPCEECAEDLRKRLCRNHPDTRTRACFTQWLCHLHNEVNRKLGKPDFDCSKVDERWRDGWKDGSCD
UCH37 inh: inhibitors of human UCH37 deubiquitinase, primary screen, biochemical, Ub-AMC cleavage, fluorescence; Ubiquitin carboxyl-terminal hydrolase isozyme L5 (Homo sapiens), Q9Y5K5; purified proteasome/UCH37; inhibition, % (concentration not given with the values); 0.33% of 330,000 active;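 active means mean of two replicates above 20%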;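 further: 0% = compound-free wells with enzyme and 100% = wells lacking proteasome; stock transfer was 100 nL into about 20 µL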
Target sequence (Q9Y5K5 whole entry, looked up): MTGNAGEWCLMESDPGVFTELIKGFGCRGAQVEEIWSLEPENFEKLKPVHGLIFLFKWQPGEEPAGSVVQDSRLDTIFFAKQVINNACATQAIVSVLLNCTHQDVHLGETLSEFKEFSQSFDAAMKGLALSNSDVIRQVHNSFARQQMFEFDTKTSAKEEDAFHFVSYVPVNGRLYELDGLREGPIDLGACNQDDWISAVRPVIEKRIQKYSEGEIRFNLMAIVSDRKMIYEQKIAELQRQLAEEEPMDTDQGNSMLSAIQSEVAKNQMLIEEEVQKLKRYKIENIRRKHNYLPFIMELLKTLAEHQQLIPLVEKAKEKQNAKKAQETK
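Schedule: 30 min plus 25 min, room temperature / Material: human UCH37 within purified proteasomes / Technique: AMC fluorescence intensity at 355/460 nm / Buffer or medium: pH 7.4 Tris-HCl (50 mM) with ovalbumin, ATP-MgCl2, DTT / Controls: wells without proteasome as full block, compound-free enzyme plus substrate as uninhibited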
HNF4A DNA FP: change in binding of human HNF4A to DNA, primary screen, biochemical, fluorescence polarization, FITC-DNA | Hepatocyte nuclear factor 4-alpha (Homo sapiens), P41235 | activity change, % at 10 µM | 1 h | 0.3% of 360,000 active; in the data active means activity change above about 30%, passing the limit was not always enough;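 further: controls were the assay level and a saturating level of protein; the project sought stronger binding though the title names inhibitors; some compounds called inactive have numbers as strong as hits; positive values seem to mean higher polarization but the record does not say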
FGF22 binding: binders of human FGF22 protein, primary screen, FGF22 synaptogenesis inhibitor project, biophysical, thermal shift, single point | Fibroblast growth factor 22 (Homo sapiens), Q9HCT0 | AID 651658, 2012 | 1.5% of 340,000 active | recombinant FGF22 thermal shift, SYPRO orange fluorescence; percent of sucrose octasulfate shift, DMSO zero | calls only at 9.99 µM;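 active means melting point raised past a set limit in the mean and every replicate; three in four hits are not shown here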
LANA-H2B inh: blockers of LANA interaction with H2A/H2B – biochemical, FP readout, HTS, primary screen; AID 2629, 2010; 0.6% of 320,000 active; cell-free LANA-H2A/H2B peptide, fluorescence polarization; inhibition, % (no concentration beside the values); Protein LANA1 (Human herpesvirus 8 type P (isolate GK18)), Q9QR71; in the data active means inhibition mostly above about 10%, no sharp cut-off; inactive means mostly below about 6.7%;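 further: stock transfer was 7.5 nL into about 10 µL; 0% = median of vehicle wells and 100% = median of positive control wells; one replicate is shown; the record names a cut of 25% in any replicate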
Starred values were filed as active, the others as inactive; i = inactive; . = no result given. An excerpt. The share of hits here may be higher or lower than overall.

The line under a structure holds: Beta2AR agonist	Ecoli growth	ALR H2O2 inh	UCH37 inh	HNF4A DNA FP	FGF22 binding	LANA-H2B inh
- CCN(CC)c1ccc(N=Nc2ncn[nH]2)cc1
 : -1.1	0.671	-0.3	14.9	23.4	i	5.4
- CSc1ncccc1C(=O)OCC(=O)c1cc(C)n(CC2CCCO2)c1C (centres undefined)
 : 2.3	0.698	-0.9	1.5	-1.0	i	-0.2
- CO/N=C(\c1nonc1N)N1CCN(c2ccc([N+](=O)[O-])cc2Cl)CC1
 : -6.4	.	-7.1	.	-3.7	.	-2.5
- COCCSc1nnc(NC(=O)C2CC(=O)N(CCc3ccc(F)cc3)C2)s1 (centres undefined)
 : 0.8	0.675	0.8	-0.5	0.8	i	-11.5
- CCOc1ccc(NC(=O)CN(C)C(=O)C2CCN(C(=O)c3ccc(Cl)cc3)CC2)cc1OCC
 : 2.1	0.643	-2.5	0.5	0.9	i	-2.4
- CCc1nnc(NC(=O)Cc2ccc(OC)c(OC)c2)s1
 : -5.0	0.695	0.9	-0.7	-0.7	i	6.4
- Cc1ccc(N(C(=O)CNC(=O)c2cccs2)C(C(=O)NC2CCCC2)c2ccncc2)cc1 (centres undefined)
 : -22.1	0.692	-7.5	2.0	1.4	i	3.5
- CCN1CCN(Cc2coc3ccc(C)cc3c2=O)CC1
 : -3.0	0.708	-2.3	4.4	-1.6	.	0.9
- Cc1nc2cccc(C(=O)Oc3ccc([N+](=O)[O-])cc3)c2o1
 : 3.0	0.675	97.1*	3.7	0.1	i	3.1
- CCOC(=O)C1=C(C)NC(C)=C(C(=O)OCC)C1/C=C/c1ccccc1OC
 : -12.4	0.696	-2.3	-69.9	2.8	.	2.2
- COc1ccccc1N1C(=O)CSC1=NC(=O)c1ccccc1
 : 11.4	0.663	-5.4	2.1	1.2	i	-2.0
- COc1cccc(COCC(O)CN2CCC(C(N)=O)CC2)c1 (centres undefined)
 : 11.0	0.632	-9.2	1.8	-0.1	i	-2.0
- CCOC(=O)c1sc(NC(=O)c2sccc2C)cc1C
 : -19.4	0.657	-25.1	-11.0	-1.9	.	-2.7
- CC(C)(C)OC(=O)N[C@@H](COCc1ccccc1)C(=O)N[C@@H](CO)[C@H](O)[C@@H]1C[C@@H]1C(=O)N1CCCC1
 : -3.8	.	.	2.9	2.2	i	1.7
- COc1cc(C=C2C(=O)c3ccccc3C2=O)ccc1O
 : 11.6	0.709	59.5	6.1	0.0	i	-0.9
- COc1cc(C(=O)N/N=C(\C)c2ccccn2)cc(OC)c1OC
 : -1.1	.	65.8	.	1.7	i	4.2
- CCOc1ccc(C(=O)N(CC)CC(=O)Nc2ccc3c(c2)OCCO3)cc1OCC
 : -6.1	0.714	-1.6	1.5	-0.4	i	5.3
- COc1ccc(CN2CCN(C(=O)c3ccc(S(=O)(=O)NCc4ccco4)cc3)CC2)cc1
 : 10.3	0.669	.	1.4	-0.4	.	.
- CN(C)C(C(=O)Nc1cc(Cl)cc(Cl)c1)c1ccccc1 (centres undefined)
 : 15.6	0.654	-5.7	1.0	4.2	i	-1.1
- CCCN(CCC)C(=O)CP(=O)(c1ccccc1)c1ccccc1
 : -3.8	0.717	-9.1	-0.6	-0.3	.	3.9

Some of the entries above, set out differently.
smiles,Beta2AR agonist,Ecoli growth,ALR H2O2 inh,UCH37 inh,HNF4A DNA FP,FGF22 binding,LANA-H2B inh
COc1cc(C=C2C(=O)c3ccccc3C2=O)ccc1O,11.6,0.709,59.5,6.1,0.0,i,-0.9
COc1cc(C(=O)N/N=C(\C)c2ccccn2)cc(OC)c1OC,-1.1,.,65.8,.,1.7,i,4.2
CCOc1ccc(C(=O)N(CC)CC(=O)Nc2ccc3c(c2)OCCO3)cc1OCC,-6.1,0.714,-1.6,1.5,-0.4,i,5.3

More compounds
The line under a structure holds: Beta2AR agonist	Ecoli growth	ALR H2O2 inh	UCH37 inh	HNF4A DNA FP	FGF22 binding	LANA-H2B inh
- CC(C)(C)OC(=O)C[C@@H]1C/C=C\C[C@H](CC(=O)N(CCO)Cc2ccccc2)C(=O)N[C@H](C(C)(C)C)COC1=O
 : 4.8	.	-1.1	0.6	-7.5	i	-4.9
- Cc1c(O[C@@H]2O[C@H](CO)[C@@H](O)[C@H](O)[C@H]2O)c(CO)c(O[C@@H]2O[C@H](CO)[C@@H](O)[C@H](O)[C@H]2O)c2c1O[C@@H](c1ccccc1)C[C@@H]2O
 : -10.1	.	-9.2	1.2	-2.5	i	2.5
- CN1C/C(=C/c2ccccc2[N+](=O)[O-])C(=O)/C(=C\c2ccccc2[N+](=O)[O-])C1
 : 17.1	.	.	.	-1.8	i	.
- O=C(O)CCNS(=O)(=O)c1ccccc1
 : 1.1	0.768	0.0	0.7	1.9	.	-1.5
- N/C(Cc1ccc(Cl)cc1)=N\OC(=O)Cc1ccc([N+](=O)[O-])cc1
 : 0.7	.	57.6	.	1.0	i	-1.5
- CNC(=O)CSc1nc(-c2ccccc2)c(-c2ccccc2)o1
 : -11.3	0.695	.	-3.7	-3.0	i	-3.3
- O=C1c2ccccc2NC(c2ccc(-c3cccs3)o2)N1O (centres undefined)
 : 10.1	0.693	17.6	-38.2	3.5	i	-4.9
- COc1cccc(/C=N/NC(=O)C(C)Sc2ccccc2)c1 (centres undefined)
 : 0.2	.	-5.0	.	0.4	i	0.0
- COC(=O)C1=C(C)Nc2nnnn2C1c1cc(OC)ccc1OC (centres undefined)
 : 1.8	0.674	1.9	0.5	2.0	.	3.4
- Cc1cc(C)n(-c2ccc(C(=O)NCc3ccc(F)cc3)cc2)n1
 : -4.3	0.704	-4.0	4.6	-1.3	i	.
- CCCOP(=O)(c1ccc(N(C)C)cc1)C(O)c1cccnc1 (centres undefined)
 : 4.2	0.759	1.5	0.7	-0.2	.	0.5
- COc1ccc2c(-c3cnc(N4CCOCC4)nc3)c(-c3ccc(S(C)(=O)=O)cc3)sc2c1
 : -0.9	0.731	0.7	-28.4	4.8	i	0.4
- COc1cccc(/C=N/NC(=O)c2cc3c(OC)c(OC)ccc3[nH]2)c1OC
 : 13.8	.	.	.	-0.3	i	.
- Cc1nn(-c2ccccc2)c(C)c1NC(=O)COC(=O)c1ccccc1
 : -1.9	0.711	11.7	1.7	-0.3	i	4.5
- O=C(O)C1CCCN1S(=O)(=O)c1ccccc1 (centres undefined)
 : -2.4	0.713	-10.8	3.7	-0.4	.	2.5
- CCOC(=O)C1(Cc2ccccc2)CCN(Cc2ccc(C3CCCCO3)s2)CC1 (centres undefined)
 : 19.9	0.643	-3.7	2.7	-2.6	i	-1.0
- Fc1ccc(-c2nnc3n2CCCCC3)cc1
 : 5.9	0.685	-8.8	-2.5	2.4	i	6.7
- O=C(COC(=O)c1cccc(S(=O)(=O)N2CCN(c3ccc(F)cc3)CC2)c1)NCC1CCCO1 (centres undefined)
 : 0.5	0.733	-0.4	1.5	-0.9	i	.
- O=C1CCC/C(=N/NC(=O)C2CCN(S(=O)(=O)c3cccs3)CC2)C1
 : 5.0	.	41.0	.	1.6	i	5.7
- CCc1cc2cc(C(=O)Nc3ccc(F)cc3)sc2s1
 : 3.0	0.74	.	2.8	-1.6	.	6.4
- Cc1nn(-c2ccccc2)c(N)c1C1(O)C(=O)Nc2ccccc21 (centres undefined)
 : 1.3	0.672	-4.2	-2.9	0.2	i	-5.1
- O=C(CN1C(=O)c2ccccc2C1=O)NCC(=O)OCC(=O)c1ccc(Br)cc1
 : 0.7	0.725	-12.1	-0.1	1.6	.	-0.4
- CS(=O)(=O)c1nc(S(=O)(=O)c2ccc(Cl)cc2)c(NCCN2CCOCC2)s1
 : -6.7	0.693	1.3	2.9	5.2	.	5.5
- O=C(O)CCSc1nc2ccccc2s1
 : -1.2	0.734	99.4*	6.4	1.1	.	0.1
- COc1ccc(NC(=O)CN(C)C(=O)c2cccc(S(=O)(=O)Nc3ccccc3Cl)c2)cc1
 : 2.1	0.673	-0.5	-0.7	4.3	i	-1.8
- O=S(=O)(NN=Cc1ccc(O)cc1O)c1cc(Cl)c(Cl)cc1Cl
 : 11.0	.	.	.	-5.9	i	.
- CCN(C(=O)C1CCN(c2nc(-c3ccc(OC)cc3)no2)CC1)c1ccccc1
 : -0.8	0.717	0.9	5.8	-5.2	i	2.2
- O=C(CSc1ncccn1)N/N=C/c1ccccc1[N+](=O)[O-]
 : -2.4	.	-5.7	.	0.3	i	-9.8
- O=C1CN(C(=O)CSc2nnc(-c3ccccc3)n2Cc2ccc3c(c2)OCO3)c2ccccc2N1
 : -13.1	0.67	-7.6	5.0	-2.3	.	0.3
- COc1ccc(C(=O)COC(=O)CNC(=O)c2ccc(Cl)cc2Cl)c(OC)c1
 : -3.9	0.717	-2.2	4.4	2.8	i	-5.4
- Cc1ccc(S(=O)(=O)N2CCOCC2)cc1C(=O)OCC(=O)c1ccc(Br)cc1
 : -3.6	0.625	-2.3	1.2	1.2	i	-1.4
- COc1cc(/C=C2\SC(=S)N(NC(=O)c3ccccc3O)C2=O)ccc1O
 : -20.8	0.653	99.0*	10.7	41.2*	i	2.0
- COc1ccc2cc(CCNC(=O)CC(C)(C)C)c(=O)[nH]c2c1
 : -1.3	0.692	-5.8	0.6	0.0	.	-0.7
- N#CC(C#N)C(c1ccsc1)c1c(-c2ccccc2)[nH][nH]c1=O (centres undefined)
 : 2.5	0.676	39.6	3.4	2.7	.	-0.4
- CC(C)OC(=O)CSc1nnc(Cc2ccccc2)n1C
 : 13.3	0.651	2.6	2.0	4.2	.	1.1
- O=C1CCCN1Cc1ccccc1
 : -5.2	0.695	-16.0	4.6	0.3	i	-3.0
- COc1cc2ccccc2cc1C(=O)Nc1ccc(C)cc1
 : 2.7	0.652	-0.4	-1.0	1.2	i	-8.0
- O=C(COc1coc(CN2CCN(c3cccc(Cl)c3)CC2)cc1=O)NC1CCCC1
 : -4.4	0.694	.	2.7	-2.2	i	2.6
- O=C(Nc1ccc2c(c1)OCCO2)C1CCN(S(=O)(=O)c2ccc(Br)s2)CC1
 : 7.6	0.754	.	1.0	1.0	.	3.3
- Cc1oc2cc(O)ccc2c(=O)c1-c1cnn(-c2ccccc2)c1
 : -3.1	0.794	-1.1	-37.4	2.1	.	-3.5
- C/C(=N\NC(=O)Cc1ccccc1)c1ccc(Br)s1
 : -9.1	.	3.8	.	1.3	i	-2.5
- O=CN1CCCN(Cc2nc(-c3cccc(Cl)c3)no2)CC1
 : -7.9	0.726	-1.9	30.2*	1.5	i	1.1
- CCOC(=O)c1ccc(NC(=S)N2CCCC(C(=O)OCC)C2)cc1 (centres undefined)
 : -1.1	0.669	-3.8	-1.2	-4.3	i	1.3
- O=C(c1cc(COc2ccc(F)cc2F)on1)N1CCCC(c2ccccc2)C1 (centres undefined)
 : 8.8	0.694	-1.5	0.8	2.5	i	.
- Cc1ccc(S(=O)(=O)N(C)C)cc1NC(=O)COC(=O)c1c(-c2ccccc2)noc1C
 : -2.6	0.631	-6.0	0.2	4.7	i	0.3
- CCC(CO)NCC(O)COCc1ccc2c(c1)OCO2 (centres undefined)
 : 10.2	0.659	1.8	0.3	-1.5	i	-0.2
- O=C(NCc1ccco1)C1CCCN1S(=O)(=O)c1ccccc1C(F)(F)F (centres undefined)
 : -3.3	0.7	-3.1	4.8	-2.7	i	-3.6
- O=C(/C=C/c1ccccc1)NCCOc1ccccc1
 : -6.2	0.666	-5.1	3.1	3.7	i	2.0
- NC(=O)C[n+]1cccc(CNC(=O)c2ccc(OC(F)F)cc2)c1
 : 5.7	0.671	.	0.7	3.2	i	-5.8

Compound activity deposited in PubChem BioAssay by several laboratories.
